# Screening results as filed in PubChem BioAssay.
# OX1R antag-1: OX1R (HCRTR1) antagonists, primary screen, fluorescence, CHO/OX1R cells, Fluo-8 calcium, orexin A; Orexin/Hypocretin receptor type 1 (Homo sapiens), O43613; Fluo-8 calcium fluorescence; inhibition, % at 5 µM; 330,000 compounds, 0.43% hits; AID 434989, 2010;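 active means inhibition above its plate's threshold, mean inhibition of all tested compounds on the plate plus 3 SD, cut at about 37% in these data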;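 further: 0% = orexin A challenge wells and 100% = SB-334867-A antagonist wells; not every result past the cut was called active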
# Target sequence (O43613 whole entry, looked up): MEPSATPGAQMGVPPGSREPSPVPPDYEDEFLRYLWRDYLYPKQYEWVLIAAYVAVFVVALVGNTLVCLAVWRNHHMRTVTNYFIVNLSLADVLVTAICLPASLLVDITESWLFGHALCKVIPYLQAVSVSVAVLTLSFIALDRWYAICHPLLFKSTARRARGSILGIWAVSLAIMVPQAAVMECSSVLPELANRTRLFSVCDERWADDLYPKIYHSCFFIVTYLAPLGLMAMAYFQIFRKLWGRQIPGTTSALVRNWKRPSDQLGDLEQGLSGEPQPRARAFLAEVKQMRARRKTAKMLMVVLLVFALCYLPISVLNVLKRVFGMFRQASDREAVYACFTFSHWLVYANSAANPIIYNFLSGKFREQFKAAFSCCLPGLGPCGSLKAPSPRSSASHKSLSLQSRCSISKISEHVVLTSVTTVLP
# OX1R antag-2: antagonists of human orexin 1 receptor (OX1R); 330,000 compounds, 1.8% hits; Orexin/Hypocretin receptor type 1 (Homo sapiens), O43613; OX1R-expressing cells, FRET antagonist read-out; inhibition, % at 6.6 µM; AID 485270, 2010; in the data active means inhibition mostly above about 38%, no sharp cut-off; inactive means mostly below about 40%;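 further: 0% = agonist challenge alone and 100% = reference antagonist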
# An asterisk follows results filed as active.
cpd	mol	OX1R antag-1	OX1R antag-2
1	CC1CCCCN1C(=O)/C(=C\c1ccccc1)c1ccccc1 (stereo not given)	-18	14
2	O=c1nc(-c2ccccc2)nc(-c2ccccc2)[nH]1	-3	34
3	N#C/C(=C\C=C\c1ccccc1[N+](=O)[O-])C(=O)NCc1ccccc1	0	44
4	COc1ccc(Cl)cc1S(=O)(=O)N1CCN(Cc2ccc3c(c2)OCO3)CC1	-16	9
5	CC(C)(C)C(=O)Nc1cccc2[nH]ncc12	1	18
6	C=C1CSc2nc(=O)c3c4c(sc3n21)CCC4	3	20
7	CCOc1ccccc1CN1CCN(C2CCC2)CC1CCO (stereo not given)	-16	11
8	CCCc1cc(=O)[nH]c(SCc2ccc(F)cc2)n1	4	11
9	CC1(C)CC(NC(=S)Nc2ccc([N+](=O)[O-])cc2)CC(C)(C)N1	-9	29
10	CC1C(=O)C(C)C(c2ccc(O)cc2)NC1c1ccc(O)cc1 (stereo not given)	8	-5
11	O=C(CCCCCn1nnc2ccccc2c1=O)N[C@H](C(=O)O)c1ccccc1	12	16
12	COCCN1CN=C(Nc2nc3ccccc3s2)NC1	-8	30
13	O=C(C1CCCCN1S(=O)(=O)c1ccccc1)N1CCN(Cc2ccccc2)CC1 (stereo not given)	-28	3
14	Cc1cccc(N2CCN(S(=O)(=O)c3c(C)[nH]c(C)c3C(=O)N3CCCCC3)CC2)c1C	-13	7
15	CN(CC1CCOCC1)C(=O)CC1C(=O)NCCN1Cc1ccccc1F (stereo not given)	1	18
16	O=C(c1cc2ccccn2n1)N1CCN(c2cccc(C(F)(F)F)c2)CC1	-19	11
17	CCNC(=S)Nc1ccc(Cl)c([N+](=O)[O-])c1	12	27
18	CC(=O)N(Cc1cc(=O)[nH]c2ccccc12)c1ccc(C)cc1	-26	6
19	Cc1ccc2[nH]c(C(=O)NN=C3CCCCC3)c(-c3ccccc3)c2c1	-23	10
20	COc1cc(/C=C2/NC(=O)N(Cc3ccccc3F)C2=O)ccc1O	-1	15
21	c1coc(-c2nc(-c3ccco3)c(-c3ccco3)nc2-c2ccco2)c1	4	18
22	COCCN=C1OC(=O)N2C(=O)C3=C4[C@@H](C[C@H]5C(=O)N(c6ccccc6)C(=O)[C@H]5[C@H]4[C@@]12Cc1ccccc1)[C@H]1C(=O)N(c2ccccc2)C(=O)[C@H]1[C@H]3C	-22	15
23	COc1ccc(CCNC(=O)C(=O)N/N=C/c2cccs2)cc1OC	-29	17
24	CC/C(=C\C(=O)c1ccncc1)Nc1ccc(Br)cc1	-4	-5
25	O=[N+]([O-])c1ccc(Cl)c(S(=O)(=O)Nc2cccc(-c3ccc(N4CCCC4)nn3)c2)c1	-19	13

# Remaining list, next part
cpd	mol	OX1R antag-1	OX1R antag-2
26	COc1ccc(/C=N/N2CCN(C)CC2)cc1O	-10	11
27	Nc1c2nc(-c3ccccc3Cl)[nH]c(=O)c2nc(=O)n1-c1ccccc1	-23	15
28	Cc1cc(C)c(C)c(S(=O)(=O)NCc2ccco2)c1C	-20	4
29	Cc1ccc(-n2cccn2)c(CN2CCCC(C(=O)c3ccc4c(c3)OCO4)C2)c1 (stereo not given)	-17	11
30	Cc1ccc(NC(=O)C2CC(=O)Nc3ncnn32)c(C)c1 (stereo not given)	-7	6
31	CCOc1ccccc1NC(=O)C(OC(=O)c1cnccn1)c1ccccc1 (stereo not given)	-17	14
32	CC(C)CCOc1cccc(OCC(=O)NC2CCS(=O)(=O)C2)c1 (stereo not given)	-25	7
33	CCN(CC)S(=O)(=O)c1ccc2c(c1)c(=O)c(C(=O)N1CCc3ccccc3C1)cn2C	-31	9
34	O=C(c1cccnc1)N1N=C(c2cccs2)CC1c1ccc(F)cc1 (stereo not given)	-25	40
35	COC(=O)c1cn(NC(=O)c2ccccc2[N+](=O)[O-])c(=O)c2ccccc12	-18	10
36	CCOC(=O)C1=C(CN2c3ccccc3CC2C)NC(=O)NC1c1ccccc1 (stereo not given)	-11	28
37	CCSCCOC(=O)C1=C(C)NC(=O)NC1c1ccc2c(c1)OCO2 (stereo not given)	-4	8
38	COC(=O)C(C)N1C(=O)S/C(=C\c2cc(C)n(-c3ccccn3)c2C)C1=O (stereo not given)	4	9
39	O=C(CSc1ccc(-c2ccc(Cl)cc2)nn1)Nc1ccc2c(c1)OCCO2	-35	18
40	Cc1cc2oc(C(=O)Nc3ccc(S(=O)(=O)N4CCCC(C)C4)cc3)cc(=O)c2cc1Cl (stereo not given)	-24	7
41	CC(NC(=O)Cc1ccccc1)c1ccc(F)cc1 (stereo not given)	-24	16
42	COc1ccc(Oc2nc3c(c(=O)n(C)c(=O)n3C)n2C)cc1	-15	-7
43	N#Cc1cccnc1N1CCC(C(N)=O)CC1	1	12
44	COc1ccc(S(=O)(=O)N(CC(=O)N2CCOCC2)Cc2ccccc2)cc1C	-22	4
45	O=C(CSc1nnc(COc2cccc3ccccc23)o1)N1c2ccccc2CCc2ccccc21	-14	15
46	CCCS(=O)(=O)N1CCN(Cc2ccccc2[N+](=O)[O-])CC1	-5	12
47	Cc1c(Cl)c(-c2n[nH]c(=S)n2-c2ccc(F)cc2)nn1C	-6	-2
48	CCOc1cc(C2C(C(=O)OCC(C)C)=C(C)N=C3SCCC(=O)N32)ccc1OC(C)=O (stereo not given)	-30	15
49	Cc1ccc(C2CC(=O)N(c3ccc(F)cc3)C3=C2C(=O)CCC3)cc1 (stereo not given)	22	15
50	CCN(CC(=O)NC1CC1)S(=O)(=O)c1ccc(OC)cc1	-8	17

# 17 of the compounds above, with two lines to a compound.
# Below each SMILES: OX1R antag-1	OX1R antag-2
(34) O=C(c1cccnc1)N1N=C(c2cccs2)CC1c1ccc(F)cc1 (stereo not given)
    -25	40
(35) COC(=O)c1cn(NC(=O)c2ccccc2[N+](=O)[O-])c(=O)c2ccccc12
    -18	10
(36) CCOC(=O)C1=C(CN2c3ccccc3CC2C)NC(=O)NC1c1ccccc1 (stereo not given)
    -11	28
(37) CCSCCOC(=O)C1=C(C)NC(=O)NC1c1ccc2c(c1)OCO2 (stereo not given)
    -4	8
(38) COC(=O)C(C)N1C(=O)S/C(=C\c2cc(C)n(-c3ccccn3)c2C)C1=O (stereo not given)
    4	9
(39) O=C(CSc1ccc(-c2ccc(Cl)cc2)nn1)Nc1ccc2c(c1)OCCO2
    -35	18
(40) Cc1cc2oc(C(=O)Nc3ccc(S(=O)(=O)N4CCCC(C)C4)cc3)cc(=O)c2cc1Cl (stereo not given)
    -24	7
(41) CC(NC(=O)Cc1ccccc1)c1ccc(F)cc1 (stereo not given)
    -24	16
(42) COc1ccc(Oc2nc3c(c(=O)n(C)c(=O)n3C)n2C)cc1
    -15	-7
(43) N#Cc1cccnc1N1CCC(C(N)=O)CC1
    1	12
(44) COc1ccc(S(=O)(=O)N(CC(=O)N2CCOCC2)Cc2ccccc2)cc1C
    -22	4
(45) O=C(CSc1nnc(COc2cccc3ccccc23)o1)N1c2ccccc2CCc2ccccc21
    -14	15
(46) CCCS(=O)(=O)N1CCN(Cc2ccccc2[N+](=O)[O-])CC1
    -5	12
(47) Cc1c(Cl)c(-c2n[nH]c(=S)n2-c2ccc(F)cc2)nn1C
    -6	-2
(48) CCOc1cc(C2C(C(=O)OCC(C)C)=C(C)N=C3SCCC(=O)N32)ccc1OC(C)=O (stereo not given)
    -30	15
(49) Cc1ccc(C2CC(=O)N(c3ccc(F)cc3)C3=C2C(=O)CCC3)cc1 (stereo not given)
    22	15
(50) CCN(CC(=O)NC1CC1)S(=O)(=O)c1ccc(OC)cc1
    -8	17

# Next structures:
cpd	mol	OX1R antag-1	OX1R antag-2
51	COc1cccc(C(c2c(C)[nH]n(-c3ccccc3)c2=O)c2c(C)[nH]n(-c3ccccc3)c2=O)c1O	-19	26
52	Cc1cc(C)nc(NS(=O)(=O)c2ccc(NC(=O)CCC(=O)O)cc2)n1	-13	1
53	Cc1ccc(C(=O)Nc2ccccc2C(=O)NC(CC(=O)O)C(=O)O)cc1 (stereo not given)	-3	3
54	O=C(CSCc1ccc(Br)cc1)Nc1ccc(S(=O)(=O)N2CCCCCC2)cc1	-24	9
55	N#Cc1c(N)n(CCNC(=O)c2ccccc2)c2nc3ccccc3nc12	-2	38
56	O=C(COC(=O)c1cccc(NS(=O)(=O)c2ccc(F)c(F)c2)c1)NC(=O)NC1CCCC1	-19	3
57	COc1ccc2c(c1)c(=O)oc1cc(OCC(=O)NC3CCCCC3)ccc12	-7	11
58	CCCN1CCN(CCCNC(=O)C2CCN(c3nnc(-n4cccc4)s3)CC2)CC1	-15	-2
59	Cc1cc(C)c2c(n1)sc1c(=O)[nH]c(SCc3ccccc3)nc12	4	15
60	COc1cc(C(=O)NC2CCN(CC(=O)NC3CCCCC3C)CC2)cc(OC)c1OC (stereo not given)	-8	7
61	CCN(CC(=O)Nc1c(F)cccc1F)C(=O)Cc1csc(-c2ccc(OC)c(OC)c2)n1	-12	17
62	O=C(CSc1ccc(F)cc1)NC(=O)NCc1ccccc1	-9	18
63	COc1cc(S(=O)(=O)Nc2ncn[nH]2)ccc1Cl	3	12
64	Cc1noc(C)c1CSc1nc2ccccc2s1	-16	35
65	COC(=O)C1=C(C(=O)OC)[C@@H]2Nc3ccccc3[C@@]23C[C@@H](C(=O)OC)N(C(=O)C2CCC2)C3=N1	-18	23
66	CC1CCN(S(=O)(=O)c2ccc(NC(=O)CN3CCOCC3)cc2)CC1	-15	11
67	CC1(C)CC(=O)C=C(NNC(=O)c2cccnc2)C1	-10	2
68	O=C(CSc1nc(-c2ccccc2)cc(C(F)(F)F)n1)NCc1cccs1	-21	16
69	COc1ccc(CNC(=O)CN2C(=O)COc3ccc(S(=O)(=O)N4CCOCC4)cc32)cc1	-30	10
70	Cc1cc(C(=O)NNC(=O)CCN2CCN(c3ccccc3)CC2)c2ccccc2n1	-20	26
71	CCN1CC2([N+](=O)[O-])C=CC(=O)C([N+](=O)[O-])(C1)C2CC(=O)c1ccccc1 (stereo not given)	-9	23
72	CCC(C)(NC(=O)c1ccccc1)C(=O)O (stereo not given)	2	7
73	CN(C(=O)CCN1C(=O)/C(=C/c2ccccc2F)SC1=S)C1CCS(=O)(=O)C1 (stereo not given)	-18	11
74	O=C1C2Sc3[nH]c(=O)sc3C(c3ccccc3)C2C(=O)N1c1ccccc1 (stereo not given)	-6	35
75	Nc1ncnc2nc(SCc3ccccc3)[nH]c12	-12	8

# Later entries:
cpd	mol	OX1R antag-1	OX1R antag-2
76	CCc1nnc(NC(=O)CSc2ccc(-c3ccc(F)cc3)nn2)s1	-24	4
77	O=C(CSc1ncccn1)NN=C1CCCCCC1	-3	6
78	O=C(Cn1nc(-c2ccc(Cl)cc2)ccc1=O)NCCCN1CCN(Cc2ccccc2)CC1	-28	19
79	C=CCOc1cccc(C2C(C(=O)c3cc4ccccc4o3)=C(O)C(=O)N2c2cc(C)on2)c1 (stereo not given)	-11	0
80	COc1ccccc1NC(=O)NC(=O)c1ccccc1	6	15
81	CC(C)c1nc(N2CCN(C(=O)c3ccccc3)CC2)c(C#N)c2c1COC(C)(C)C2	-35	15
82	C=CCN1C(=O)/C(=C\c2ccco2)C(C(=O)OC)=C1C	-29	27
83	O=C(Nc1ccnn1C1CCN(C(=O)c2ccc(F)cc2)CC1)C1CCOC1 (stereo not given)	-12	13
84	COc1ccc(N2C(=O)c3cc4ccccc4cc3C2=O)cc1	-2	2
85	CC1(C)CC2CC(C)(CN2C(=S)Nc2ccccc2F)C1 (stereo not given)	-10	21
86	Cc1cc2cc(CNC(=O)Nc3ccccc3)ccc2n1C	-13	6
87	COc1ccc(-c2csc(-c3cccnc3)n2)cc1C	-30	20
88	COc1ccc(C2Nc3ccccc3C(=O)N2Cc2ccco2)cc1COc1ccc([N+](=O)[O-])cc1 (stereo not given)	-19	20
89	O=C(c1cc(-c2ccccc2)nc2ccccc12)N1CCc2ccccc2C1	-41	32
90	COc1ccc(CN2CCNC(=O)C2CC(=O)NCc2cc(C)n(C)n2)c(F)c1 (stereo not given)	-23	20
91	Cc1ccc(C(NC(=O)C2CCCCC2)c2c(O)ccc3ccccc23)cc1 (stereo not given)	-26	-1
92	O=C(NC(=S)Nc1ccc(N2CCN(C(=O)c3ccccc3)CC2)cc1)c1cccs1	-9	16
93	COC1=C/C(=C/c2c(N)n3cc(C)sc3nc2=O)C=CC1=O	-4	26
94	COc1cc(Cn2c(=O)oc3ccc(C)cc32)ccc1OC(C)C	-27	19
95	O=[N+]([O-])c1ccccc1/C=C/CN1CCCC(CO)C1 (stereo not given)	-10	20
96	CCCCN(CCCC)CCCN1CC(=O)N2[C@@H](Cc3c([nH]c4ccccc34)C2(C)C)C1=O	-11	-1
97	O=C(O)c1ccc(NS(=O)(=O)c2cc(Cl)ccc2Cl)cc1O	-15	10
98	O=[N+]([O-])c1ccccc1S(=O)(=O)N1CCCCC1	-4	6
99	CCOC(=O)[C@H]1[C@H]2COc3cc(OC)ccc3[C@@H]2N2C(=O)N(c3ccc(Cl)cc3)C(=O)[C@@]12C	-51	8
100	COc1cc(C[C@@H](CO)[C@H](CO)Cc2ccc(O)c(OC)c2)ccc1O	5	6

# The list goes on:
cpd	mol	OX1R antag-1	OX1R antag-2
101	CC(=O)C(Sc1nc(NC(C)(C)C)nc(N(C)C)n1)C(C)=O	-37	10
102	c1csc(-c2nc(CN3CCSCC3)cs2)c1	-7	19
103	Cc1cc(NCCO)c2cc(O)ccc2n1	6	7
104	CCC(C)C(NC(=O)C1CCC(C)CC1)C(=O)NCc1cccnc1 (stereo not given)	-28	20
105	COc1ccc(CCNC(=O)/C(C#N)=C2\N=C(NC(=O)c3cccs3)c3ccccc32)cc1	-13	110*
106	O=c1oc2c(CN3CCOCC3)c(O)ccc2c2c1CCC2	-2	6
107	CC1CC(NC(=O)Cc2ccc(Br)cc2)CC(C)(C)C1 (stereo not given)	-19	22
108	Cn1c(C(=O)NCCN2CCN(Cc3ccccc3)CC2)cc2c(=O)n(C)c3ccccc3c21	-19	18
109	COC(=O)c1ccc(Cn2nnc3ccccc32)cc1	-3	7

# Some of the compounds tested, and most or all hits are left out here.
